Screens: PubChem BioAssay, National Center for Advancing Translational Sciences (NCATS)
Rango complex inh: Rango-importin beta binding inhibition | hit rate 0.031% among 340,000 | Q14974 | Potency, µM (highest dose often 92.2 µM), for inactives: top-dose inhibition of complex formation | Rango CFP/YFP FRET sensor + importin beta, 45 min | AID 540263; active = rising FRET ratio curve, often small or poorly fitted; inconclusive = mostly compound fluorescence or quenching in the first reads; inactive = flat curves in all reads;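 further: potency means the concentration at half of the fitted maximal effect; 0% = DMSO wells and 100% = buffer wells lacking importin beta; nearly all actives have a fitted effect of over 15% in size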
Target sequence (Q14974 whole entry, looked up): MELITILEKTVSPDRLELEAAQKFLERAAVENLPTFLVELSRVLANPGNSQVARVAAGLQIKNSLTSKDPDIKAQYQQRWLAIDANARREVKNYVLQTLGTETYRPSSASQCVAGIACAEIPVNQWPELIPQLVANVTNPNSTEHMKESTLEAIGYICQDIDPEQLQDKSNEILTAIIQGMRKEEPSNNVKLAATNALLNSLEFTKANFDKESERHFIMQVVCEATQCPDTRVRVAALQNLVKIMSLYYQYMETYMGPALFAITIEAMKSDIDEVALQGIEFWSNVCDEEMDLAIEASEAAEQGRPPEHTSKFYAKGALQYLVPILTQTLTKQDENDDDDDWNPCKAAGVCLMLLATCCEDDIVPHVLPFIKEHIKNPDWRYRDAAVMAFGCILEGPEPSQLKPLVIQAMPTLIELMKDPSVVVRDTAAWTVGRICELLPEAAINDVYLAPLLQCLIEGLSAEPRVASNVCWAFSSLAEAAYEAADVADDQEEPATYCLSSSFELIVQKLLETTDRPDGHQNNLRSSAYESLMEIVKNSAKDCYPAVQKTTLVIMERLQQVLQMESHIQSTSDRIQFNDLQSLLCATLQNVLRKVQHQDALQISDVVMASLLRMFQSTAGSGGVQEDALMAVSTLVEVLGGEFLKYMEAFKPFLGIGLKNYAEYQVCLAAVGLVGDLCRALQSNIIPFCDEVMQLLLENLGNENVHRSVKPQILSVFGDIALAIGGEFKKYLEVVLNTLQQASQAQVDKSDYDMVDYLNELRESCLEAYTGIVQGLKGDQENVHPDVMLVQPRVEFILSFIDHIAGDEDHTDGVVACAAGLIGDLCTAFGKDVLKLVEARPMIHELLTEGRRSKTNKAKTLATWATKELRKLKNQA
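Inhibition scored from the CFP 486 nm/YFP 530 nm FRET ratio 45 min after adding 0.125 microM importin beta to 50 nM Rango biosensor preincubated 5 min with compound (room temperature, PBS with DTT, Tween-20, BSA). No-importin wells as positive control.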
miR-21 reporter: raises the signal of a miR-21 reporter | AID 2288 | HeLa miR-21 FLuc reporter, luciferase, 48 h | Potency, µM (doses to about 38.3 µM), inactives show at the top dose reporter change, positive = more light | 340,000 tested, under 10 active; active = well fitted rising curve with a large enough effect; inconclusive = small, poorly fitted or top-dose-only effect; inactive = no such curve, though single readings can be large or run the other way;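 further: % of control where 0% means no effect; miR-21 action dims this reporter so a rising signal means less miR-21 action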
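HeLa miR-21-FLuc reporter line, endogenous miR-21; 2000 cells/well in DMEM/10% FBS; compound titration up to ~40uM final, 48 h, 37 degree Celsius; luciferase detection reagent, 15 min lysis, CCD luminescence.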
GLA inh pH 4.5: alpha-galactosidase A (human) inhibition, pH 4.5; P06280; purified enzyme, 4-MU-alpha-Gal fluorescence, pH 4.5; activity change, negative = inhibition, % at 105 µM; 230,000 tested, under 10 active; AID 1467; inconclusive = small, poorly fitted or top-dose-only inhibition, or a rising curve; inactive = flat fitted curve, though single readings scatter; no compound was filed as active;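 further: 0% = full activity with enzyme and -100% = basal without enzyme; dose as in the result columns while the protocol names 77 µM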
Rango dissoc inh: inhibition of RanGTP-driven Rango-importin beta dissociation; O95149+P62826; Biochemical FRET Rango-importin beta, RanGTP-induced dissociation; Potency, µM (doses to about 46.1 µM), without a hit: top-dose activity change, negative = inhibition; hit rate 0.071% among 340,000; active means falling FRET ratio curve, often poorly fitted, with flat reads before Ran was added; inconclusive means other falling curves, or compound fluorescence or quenching; inactive means flat or rising ratio curve;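 further: potency means the concentration at half of the fitted maximal effect; % of control where 0% means no effect; nearly all actives have a fitted effect of over 45% in size; -100% = wells without RanGTP and RCC1; the record marks most hits as doubtful in a second field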
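Rango FRET biosensor (snurportin-1 IBB flanked by N-terminal EYFP and C-terminal CFP10) at 0.1 uM, with 0.25 uM importin beta in PBS, 1mM DTT, 0.02% Tween-20, 0.1% BSA. 0.6 uM Ran, 2mM GTP and 0.2 uM RCC1 were then added for 45 min at room temperature. Inhibition read as loss of FRET rise.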
The depositor's hits bear a star; ? = inconclusive; / = no result given; & = joins results of further samples. Only part of the results is shown (hit frequency here may not be typical).

| no. | Rango complex inh | miR-21 reporter | compound | GLA inh pH 4.5 | Rango dissoc inh |
| --- | --- | --- | --- | --- | --- |
| 1 | -1.0% | -10.4% | O=S(=O)(Nc1nc2ccccc2[nH]1)c1ccc(Cl)cc1 | -5.1 | -10.6% |
| 2 | 0.1% | -0.7% | O=C(O)c1cc2c(cc1NC(=O)c1c(F)cccc1Cl)OCCCO2 | / | 11.1% |
| 3 | -1.9% | -1.6% | COc1ccc(OC)c(S(=O)(=O)N2CCC(C(=O)NC(C)c3ccccc3)CC2)c1 (configuration not stated) | 1.4 | -15.3% |
| 4 | 1.8% | ? | NC1=NC[C@H](Cc2ccc(O)cc2)N1CCCCC1CCCCC1 | 3.6 | 0.3% |
| 5 | 0.0% | -2.8% | O=C(Cc1ccc(NC2=NC3CS(=O)(=O)CC3S2)cc1)Nc1ccc(F)cc1 (configuration not stated) | / | 15.3% |
| 6 | -1.4% | / | CN(C)/C=C1\C(=O)Oc2ccccc2C1=O | / | 12.9% |
| 7 | -1.9% | / | CC(=O)c1ccc(S(=O)(=O)Nc2ccc(Cl)c(S(=O)(=O)N3CCCC3)c2)cc1 | / | 23.2% |
| 8 | -5.1% | -3.1% | Cc1nc(P(=O)(c2ccccc2)c2ccccc2)c(N2CCOCC2)o1 | 2.1 | -1.0% |
| 9 | 1.2% | -13.0% | C=CCn1c(CCn2c3ccccc3c3ccccc32)n[nH]c1=S | -7.8 | -1.5% |
| 10 | -0.7% | 0.2% | CCCOc1ccc(N2CC(C(=O)Nc3ccc4c(c3)OCO4)CC2=O)cc1 (configuration not stated) | 5.1 | -14.3% |
| 11 | ? | -0.6% | CC(NC(=O)/C(C#N)=C1\N=C(NC(=O)c2ccco2)c2ccccc21)c1ccccc1 (configuration not stated) | -11.4 | ? |
| 12 | ? | 7.6% | COc1ccc(-c2nc(CSCC(=O)NCc3ccco3)c(C)o2)cc1 | -4.7 | 11.6% |
| 13 | -0.1% | -3.9% | Nc1nonc1-n1nnc(C(=O)N/N=C\c2cccc(Cl)c2)c1CN1CCOCC1 | / | -11.2% |
| 14 | 5.5% | / | CC1(C(=O)N/N=C/c2c(F)c(F)c(F)c(F)c2F)CC1(Cl)Cl (configuration not stated) | / | 0.8% |
| 15 | 1.9% | -6.4% | COc1cc2c(cc1OC)CN(CC(=O)Nc1cccc([N+](=O)[O-])c1)CC2 | / | -7.9% |

More entries
| no. | Rango complex inh | miR-21 reporter | compound | GLA inh pH 4.5 | Rango dissoc inh |
| --- | --- | --- | --- | --- | --- |
| 16 | 3.3% | -4.3% | Cc1ccc(NC(=O)COC(=O)c2cc(C)nc3ccccc23)c([N+](=O)[O-])c1 | 2.0 | 0.6% |
| 17 | -1.3% | 0.5% | CN1C(=O)CC(N2CCN(C(=O)CN3CCCC3)CC2)C1=O (configuration not stated) | 7.2 | 9.2% |
| 18 | -2.0% | -8.1% | COc1cccc(-n2c(SC)nnc2-c2c[nH]c3ccccc23)c1 | -0.3 | -15.8% |
| 19 | -0.5% | -16.6% | Cc1occc1C(=O)NNC(=O)Nc1ccc(Cl)c(Cl)c1 | -4.6 | -8.4% |
| 20 | -3.1% | 5.9% | CCNC(=S)N1CCNC(=O)C1CC(=O)OC (configuration not stated) | 1.1 | 0.0% |
| 21 | -0.1% | 4.4%&7.0% | CCOCCCNC(=O)C(c1ccc(OC)cc1)N(Cc1ccc2c(c1)OCO2)C(=O)c1ccccc1O (configuration not stated) | 1.1 | 21.4% |
| 22 | 2.2% | 2.9% | Cc1cccc(NC(=O)c2nc[nH]c2C(=O)N[C@@H](Cc2ccccc2)C(=O)OC(C)(C)C)c1 | -4.9 | -5.7% |
| 23 | -1.8% | 0.8% | COc1ccc(CCN(C)C(=O)c2cncc(Br)c2)cc1OC | / | 0.8% |
| 24 | 4.3% | -16.7%&-16.9% | Cc1ccc(-c2nc3ncccn3c2Nc2ccc3c(c2)OCCO3)cc1 | -8.4 | -6.3% |
| 25 | 0.7% | -8.9%&-9.5% | Cc1cccc(N2CCN(C(=O)COCc3cc(-c4ccc5c(c4)OCO5)on3)CC2)c1C | / | -9.7% |
| 26 | -2.5% | / | O=[N+]([O-])c1cc(C(F)(F)F)ccc1NCCc1ccccn1 | / | 2.7% |
| 27 | 1.5% | -5.9% | CN(C)C(CNC(=O)c1ccc(S(=O)(=O)NCc2ccco2)cc1)c1ccccc1 (configuration not stated) | 1.6 | 9.3% |
| 28 | -3.0% | 1.0% | CCn1c(=S)[nH]c2sc3c(c2c1=O)CCCC3 | / | 4.0% |
| 29 | -1.0% | -12.5% | COc1ccc(C2=NO[C@@H]3C(=O)N(c4ccc5c(c4)OCCO5)C(=O)[C@H]23)cc1OC | -5.8 | -0.3% |
| 30 | 11.9% | -12.2% | O=C(COc1ncnc2ccccc12)NCCC1=CCCCC1 | 10.9 | -24.8% |

Structural class, the entries above with fluorine
| no. | Rango complex inh | miR-21 reporter | compound | GLA inh pH 4.5 | Rango dissoc inh |
| --- | --- | --- | --- | --- | --- |
| 2 | 0.1% | -0.7% | O=C(O)c1cc2c(cc1NC(=O)c1c(F)cccc1Cl)OCCCO2 | / | 11.1% |
| 5 | 0.0% | -2.8% | O=C(Cc1ccc(NC2=NC3CS(=O)(=O)CC3S2)cc1)Nc1ccc(F)cc1 (configuration not stated) | / | 15.3% |
| 14 | 5.5% | / | CC1(C(=O)N/N=C/c2c(F)c(F)c(F)c(F)c2F)CC1(Cl)Cl (configuration not stated) | / | 0.8% |
| 26 | -2.5% | / | O=[N+]([O-])c1cc(C(F)(F)F)ccc1NCCc1ccccn1 | / | 2.7% |

(listing goes on)
| no. | Rango complex inh | miR-21 reporter | compound | GLA inh pH 4.5 | Rango dissoc inh |
| --- | --- | --- | --- | --- | --- |
| 31 | 4.0% | -0.5% | CCOC(=O)c1ccc(NC(=O)c2cc(C)nn2-c2ccccc2)cc1 | / | 0.3% |
| 32 | -5.2% | 5.2% | Cn1c(SCCCC(=O)c2ccc(Br)cc2)nnc1-c1ccncc1 | -5.7 | 1.1% |
| 33 | -0.9% | / | Cc1ccc(S(=O)(=O)N2CCOCC2)cc1C(=O)OCC(=O)c1c(N)n(C)c(=O)n(C)c1=O | / | -4.0% |
| 34 | -4.3% | / | COc1ccc(NC(=O)N(C)C[C@H]2Oc3ccc(NC(=O)CCC(F)(F)F)cc3C(=O)N([C@H](C)CO)C[C@@H]2C)cc1 | / | -2.2% |
| 35 | -1.6% | -4.7% | O=C(NC1CCN(Cc2ccc(Cl)c(Cl)c2)CC1)c1ccccc1 | / | -9.0% |
| 36 | ? | -19.5% | CCN(CC)c1ccc(NC(=O)c2cc3ccccc3o2)c(C)c1 | -12.3 | -13.4% |
| 37 | -0.7% | -7.3% | CC/C(=N\NC(=O)c1c(C)nc2ccccn12)c1ccc(Cl)cc1 | / | 16.1% |
| 38 | 2.2% | -23.4% | CCc1ccc(-c2nc(SCC(=O)N3CCOCC3)n[nH]2)cc1 | 2.8 | 1.5% |
| 39 | -3.4% | 7.3% | C=CCCC(=O)Nc1ccc(Br)cn1 | 0.0 | -2.2% |
| 40 | -0.3% | -1.7% | Cc1ccc(NC(=O)C2CC(O)CN2C(=O)Oc2ccccc2)c(C)c1 (configuration not stated) | / | 16.3% |
| 41 | 1.1% | -7.3% | Cc1occc1C(=O)N1CCCC(N2CCN(c3ccccc3F)CC2)C1 (configuration not stated) | / | -0.2% |
| 42 | -3.4% | / | COc1ccc(NS(=O)(=O)c2cc(NC(=O)Cc3n[nH]c(=O)c4ccccc34)ccc2OC)cc1 | / | 2.3% |
| 43 | -1.1% | 1.9% | COc1cc(CO)ccc1OCc1nnnn1-c1ccc(C)cc1 | / | ? |
| 44 | -3.2% | 2.1% | COc1cc(C(=O)OCC(=O)Nc2ccc(OC(F)F)cc2)cc(OC)c1OC | / | 4.4% |
| 45 | ? | -7.5% | CCOC(=O)c1c(NC(=O)c2cccs2)sc(C)c1CC | 8.1 | -5.1% |

Some of the entries so far, in transposed form:
(19) Cc1occc1C(=O)NNC(=O)Nc1ccc(Cl)c(Cl)c1
(5) O=C(Cc1ccc(NC2=NC3CS(=O)(=O)CC3S2)cc1)Nc1ccc(F)cc1 (configuration not stated)
(42) COc1ccc(NS(=O)(=O)c2cc(NC(=O)Cc3n[nH]c(=O)c4ccccc34)ccc2OC)cc1
(6) CN(C)/C=C1\C(=O)Oc2ccccc2C1=O
(27) CN(C)C(CNC(=O)c1ccc(S(=O)(=O)NCc2ccco2)cc1)c1ccccc1 (configuration not stated)
(3) COc1ccc(OC)c(S(=O)(=O)N2CCC(C(=O)NC(C)c3ccccc3)CC2)c1 (configuration not stated)
screen / no.	19	5	42	6	27	3
Rango complex inh	-0.5%	0.0%	-3.4%	-1.4%	1.5%	-1.9%
miR-21 reporter	-16.6%	-2.8%	/	/	-5.9%	-1.6%
GLA inh pH 4.5	-4.6	/	/	/	1.6	1.4
Rango dissoc inh	-8.4%	15.3%	2.3%	12.9%	9.3%	-15.3%

Carrying on.
| no. | Rango complex inh | miR-21 reporter | compound | GLA inh pH 4.5 | Rango dissoc inh |
| --- | --- | --- | --- | --- | --- |
| 46 | 0.4% | -0.1% | Cc1cc2c(=O)n(C)c(SCC(=O)Nc3cccc(O)c3)nc2s1 | / | 1.6% |
| 47 | -1.6% | -2.9% | COc1cc([N+](=O)[O-])ccc1NC(=O)CCCOc1ccc(C)cc1 | 0.8 | 4.2% |
| 48 | 0.5% | -12.7% | CCOc1ccc(C(=O)Nc2ccc3nc(N4CCN(CC)CC4)cc(C)c3c2)cc1 | / | 1.9% |
| 49 | 2.7% | -0.3% | CCc1nc(NCCc2ccccn2)c2nnn(Cc3ccccc3F)c2n1 | 6.0 | 0.0% |
| 50 | -7.7% | 0.0% | Cc1cc(C)c(C#N)c(Nc2ccccc2C)n1 | / | 18.4% |
| 51 | -0.7% | 10.7% | COc1cc(NC(=O)CSc2nc3[nH]ncc3c(=O)n2-c2ccc(Cl)cc2)cc(OC)c1 | / | 7.2% |

Shown with values ahead of the structure: 2 of the compounds above
cpd	Rango complex inh	miR-21 reporter	GLA inh pH 4.5	Rango dissoc inh	Molecule
49	2.7%	-0.3%	6.0	0.0%	CCc1nc(NCCc2ccccn2)c2nnn(Cc3ccccc3F)c2n1
50	-7.7%	0.0%	/	18.4%	Cc1cc(C)c(C#N)c(Nc2ccccc2C)n1
